HIV Env fusion: inhibitors of HIV-1 Env-driven cell-cell fusion, primary screen, HeLa-JRFL effector, CEM21 target cells, luciferase; inhibition, % at 12.3 µM; 360,000 compounds, 1.1% hits;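 active = mean replicate inhibition score of at least 50 and every replicate individually at or above 50; inconclusive = only one of the two criteria met; inactive = mean below 50 and not all replicates reaching 50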;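 also: 0% = plate neutral controls and 100% = maraviroc near 300 nM; one replicate is shown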
Yeast UUG start: modulators of yeast start codon fidelity, primary screen, whole organism, S. cerevisiae, single point, plate reader | activity score, % at 18.7 µM | AID 602363, 2012 | 350,000 compounds, 0.13% hits | S. cerevisiae UUG-firefly luciferase reporter, luminescence/redox ratio;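 active = replicate mean at a twofold rise or more, about +100% in these data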;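 also: firefly luciferase made from a UUG start codon reports start codon fidelity; reporter light over untreated wells divided by growth signal over untreated wells; some hits fall short of that in this replicate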
* = called active by the depositor; ? = inconclusive; [ ] = another dose, or the depositor's remark. A portion of the library. The share of hits here may be higher or lower than overall.

cpd	SMILES	HIV Env fusion	Yeast UUG start
1	Cc1ccccc1-c1cnc2c(c1)C(=O)N([C@H](C)CO)C[C@H](C)[C@@H](CN(C)CC1CCCC1)O2	26[16.7 µM]	10
2	C[C@@H]1CCCCO[C@@H](CN(C)S(=O)(=O)c2cccs2)[C@H](C)CN([C@H](C)CO)C(=O)c2cc(NS(=O)(=O)c3cccs3)ccc2O1	6[16.7 µM]	-15
3	Cc1noc(C)c1S(=O)(=O)Nc1ccc2c(c1)C(=O)N([C@@H](C)CO)C[C@H](C)[C@@H](CN(C)C(=O)Nc1ccc3c(c1)OCO3)OCCCC[C@@H](C)O2	-17[16.7 µM]	0
4	CCc1csc(N2[C@H](C#N)[C@@H](c3ccc(-c4cccc(F)c4)cc3)[C@@H]2CO)n1	3[16.7 µM]	-15
5	C[C@H](CO)N1C[C@H](C)[C@H](CN(C)Cc2ccc(C(=O)O)cc2)OCCCC[C@H](C)Oc2ccc(NC(=O)c3ccccc3)cc2C1=O	11[16.7 µM]	3
6	CC(=O)Nc1ccc2c(c1)C(=O)N(C)[C@@H]1CC[C@@H](CC(=O)NC3CCCCC3)O[C@@H]1CO2	-8[16.7 µM]	-8
7	CO[C@H]1CN(C)C(=O)c2cc(NS(C)(=O)=O)ccc2OC[C@H](C)N(Cc2nccs2)C[C@@H]1C	15[16.7 µM]	-4
8	C[C@H](CO)N1C[C@H](C)[C@@H](CN(C)Cc2ccc(C(F)(F)F)cc2)Oc2ccc(NS(=O)(=O)c3cccs3)cc2CC1=O	9[16.7 µM]	1
9	COc1ccccc1CNC(=O)C[C@@H]1C[C@H]2c3cc(NC(=O)CC4CC4)ccc3O[C@H]2[C@@H](CO)O1	-18[16.7 µM]	-8
10	C[C@H](CO)N1C[C@H](C)[C@H](CN(C)C(=O)Nc2ccccc2)Oc2ccc(NS(=O)(=O)c3cn(C)cn3)cc2C1=O	10[16.7 µM]	-10

cpd	SMILES	HIV Env fusion	Yeast UUG start
11	C[C@@H]1CN([C@H](C)CO)S(=O)(=O)c2ccc(-c3ccccc3)cc2O[C@@H]1CN(C)C(=O)CC1CC1	-34[16.7 µM]	17
12	CO[C@H]1CN(C)C(=O)c2ccc(NC(=O)c3cccc(F)c3)cc2OC[C@H](C)N(C(C)=O)C[C@@H]1C	-10[16.7 µM]	5
13	C[C@H](CO)N1C[C@H](C)[C@@H](CN(C)S(=O)(=O)c2cn(C)cn2)Oc2ncc(C3=CCCCC3)cc2C1=O	7[16.7 µM]	-6
14	C[C@@H]1CN([C@@H](C)CO)C(=O)c2cc(NC(=O)c3ccccc3)ccc2O[C@@H](C)CCCCO[C@H]1CN(C)C(=O)C1CCCCC1	8[16.7 µM]	7
15	C[C@H](CO)N1C[C@H](C)[C@@H](CN(C)C(=O)c2ccccc2)OCCCC[C@H](C)Oc2ccc(NC(=O)CCC(F)(F)F)cc2C1=O	-53[16.7 µM]	8
16	C[C@@H]1CN([C@H](C)CO)S(=O)(=O)c2ccc(-c3ccc(F)cc3)cc2O[C@@H]1CN(C)C(=O)C1CCOCC1	0[16.7 µM]	11
17	C[C@@H]1CN([C@@H](C)CO)C(=O)c2cccc(NC(=O)NC3CCCCC3)c2O[C@H]1CN(C)CC1CCCCC1	19[16.7 µM]	0
18	C/C=C/c1ccc2c(c1)O[C@@H](CN(C)C(=O)CC1CC1)[C@@H](C)CN([C@@H](C)CO)S2(=O)=O	8[16.7 µM]	5
19	C[C@H](CO)N1C[C@H](C)[C@@H](CN(C)S(=O)(=O)c2ccc(Cl)cc2)OCCCC[C@H](C)Oc2ccc(NC(=O)c3ccncc3)cc2C1=O	-16[16.7 µM]	-4
20	C[C@@H]1CN([C@H](C)CO)C(=O)c2cccc(NS(=O)(=O)c3cn(C)cn3)c2O[C@H]1CN(C)Cc1ccc(C(=O)O)cc1	16[16.7 µM]	-12

cpd	SMILES	HIV Env fusion	Yeast UUG start
21	N#C[C@@H]1N[C@H](CO)[C@@H]1c1ccccc1	-10[16.7 µM]	-14
22	CCC(=O)N(C)C[C@@H]1Oc2ncc(C#CCC(C)C)cc2C(=O)N([C@@H](C)CO)C[C@H]1C	-18[16.7 µM]	4
23	C[C@H]1CN([C@@H](C)CO)C(=O)c2cccc(NC(=O)Nc3cccc4ccccc34)c2O[C@H]1CN(C)Cc1ccccc1	-2[16.7 µM]	17
24	CC(C)CC#Cc1ccc2c(c1)O[C@@H](CN(C)Cc1cncnc1)[C@@H](C)CN([C@H](C)CO)S2(=O)=O	4[16.7 µM]	-1
25	C[C@@H]1CN([C@@H](C)CO)C(=O)CCCn2cc(nn2)CO[C@H]1CN(C)C(=O)Nc1ccccc1C(F)(F)F	6[16.7 µM]	0
26	C[C@@H]1CN([C@H](C)CO)C(=O)c2cccc(NC(=O)Nc3ccc4c(c3)OCO4)c2O[C@H]1CN(C)S(=O)(=O)c1ccc(F)cc1	-27[16.7 µM]	1
27	CC(C)NC(=O)N[C@@H]1C=C[C@@H](CC(=O)NCc2ccc(Oc3ccccc3)cc2)O[C@@H]1CO	3[16.7 µM]	-9
28	C[C@H]1CN([C@@H](C)CO)C(=O)c2cc(C#Cc3cccc(F)c3)cnc2O[C@@H]1CN(C)C(=O)C1CC1	-1[16.7 µM]	10
29	COc1ccc(S(=O)(=O)Nc2ccc3c(c2)C(=O)N([C@H](C)CO)C[C@@H](C)[C@H](CN(C)S(C)(=O)=O)O3)cc1	10[16.7 µM]	-7
30	C[C@H](CO)N1C[C@H](C)[C@H](CN(C)C(=O)C2CCCCC2)Oc2ncc(C3=CCCC3)cc2C1=O	6[16.7 µM]	9

cpd	SMILES	HIV Env fusion	Yeast UUG start
31	C[C@H](CO)N1C[C@H](C)[C@H](CN(C)Cc2ccccc2)OCCCC[C@H](C)Oc2ccc(NC(=O)CCC(F)(F)F)cc2C1=O	-43[16.7 µM]	7
32	C[C@H](NC(=O)C[C@H]1C=C[C@@H](NC(=O)C2CCOCC2)[C@@H](CO)O1)c1ccccc1	-7[16.7 µM]	-8
33	COc1ccc(S(=O)(=O)Nc2ccc3c(c2)C(=O)N([C@@H](C)CO)C[C@@H](C)[C@@H](CN(C)S(=O)(=O)c2ccc(F)cc2)OCCCC[C@@H](C)O3)cc1	17[16.7 µM]	0
34	C[C@H](CO)N1C[C@H](C)[C@H](CN(C)Cc2ccc(F)cc2)Oc2ncc(C#CCN(C)C)cc2C1=O	4[16.7 µM]	-2
35	C[C@H](CO)N1C[C@H](C)[C@@H](CN(C)Cc2ccccc2)Oc2ccc(NC(=O)Nc3cccc4ccccc34)cc2CC1=O	7[16.7 µM]	15
36	O=C(C[C@@H]1C[C@H]2c3cc(NC(=O)NC4CCCC4)ccc3O[C@H]2[C@@H](CO)O1)NCCN1CCCCC1	-5[16.7 µM]	-10
37	C/C=C/c1cnc2c(c1)C(=O)N([C@@H](C)CO)C[C@@H](C)[C@@H](CN(C)Cc1ccccc1F)O2	-1[16.7 µM]	-4
38	Cc1ccc(S(=O)(=O)Nc2cccc3c2O[C@@H](CN(C)S(C)(=O)=O)[C@@H](C)CN([C@H](C)CO)C3=O)cc1	16[16.7 µM]	24
39	O=C(N[C@@H]1CC[C@H](CCNC(=O)C2CCOCC2)O[C@H]1CO)c1ccncc1	11[16.7 µM]	-6
40	CC(C)CC#Cc1cnc2c(c1)C(=O)N([C@H](C)CO)C[C@H](C)[C@H](CN(C)C(=O)Nc1cc(F)ccc1F)O2	-3[16.7 µM]	42

cpd	SMILES	HIV Env fusion	Yeast UUG start
41	C[C@H](CO)N1C[C@H](C)[C@@H](CN(C)C(=O)Nc2ccc(F)cc2)Oc2ccc(NS(=O)(=O)c3cn(C)cn3)cc2CC1=O	-10[16.7 µM]	-4
42	CC(C)NC(=O)Nc1ccc2c(c1)C(=O)N([C@H](C)CO)C[C@@H](C)[C@@H](CN(C)S(=O)(=O)c1ccc(Cl)cc1)OCCCC[C@@H](C)O2	14[16.7 µM]	6
43	C[C@H](CO)N1C[C@H](C)[C@@H](CN(C)Cc2ccc(C(=O)Nc3ccccc3N)cc2)Oc2ccc(NC(=O)Cc3ccccc3)cc2C1=O	16[16.7 µM]	2
44	O=C(NCC[C@@H]1CC[C@@H](NS(=O)(=O)c2ccccc2)[C@H](CO)O1)c1ccc2c(c1)OCO2	10[16.7 µM]	10
45	Cc1noc(C)c1NC(=O)N(C)C[C@@H]1Oc2ccc(NC(=O)CCCCCC(=O)Nc3ccccc3N)cc2CC(=O)N([C@@H](C)CO)C[C@@H]1C	-41[16.7 µM]	3
46	C[C@@H]1CN([C@@H](C)CO)C(=O)c2cc(NS(=O)(=O)c3cn(C)cn3)ccc2O[C@@H](C)CCCCO[C@H]1CN(C)C(=O)Nc1ccc(F)cc1	1[16.7 µM]	10
47	C[C@@H]1CN([C@@H](C)CO)C(=O)Cc2cc(NC(=O)Cc3ccccc3)ccc2O[C@@H]1CN(C)S(C)(=O)=O	5[16.7 µM]	1
48	CN1C(=O)c2cc(NC(=O)c3ccc(F)cc3)ccc2OC[C@@H]2O[C@H](CC(=O)NCC3CCCCC3)CC[C@H]21	15[16.7 µM]	32
49	CCC(=O)Nc1ccc2c(c1)OC[C@@H](C)N(C(C)=O)C[C@H](C)[C@H](OC)CN(C)C2=O	-35[16.7 µM]	-2
50	C[C@@H]1CN([C@@H](C)CO)C(=O)Cc2cc(NS(=O)(=O)c3ccccc3)ccc2O[C@H]1CN(C)Cc1ccccc1	-8[16.7 µM]	1

cpd	SMILES	HIV Env fusion	Yeast UUG start
51	C[C@@H]1CN([C@@H](C)CO)C(=O)Cc2cc(NC(=O)CCCCCC(=O)Nc3ccccc3N)ccc2O[C@@H]1CN(C)C(=O)Nc1ccc2c(c1)OCO2	15[16.7 µM]	20
52	CCC(=O)N[C@@H]1C=C[C@H](CC(=O)NCc2ccccc2F)O[C@H]1CO	-31[16.7 µM]	-2
53	C[C@H]1CCCCO[C@H](CN(C)C(=O)Cc2ccccc2)[C@@H](C)CN([C@@H](C)CO)C(=O)c2cc(NC(=O)Cc3ccccc3)ccc2O1	-5[16.7 µM]	4
54	C[C@@H]1CN([C@H](C)CO)C(=O)c2cc(C#CCN(C)C)cnc2O[C@H]1CN(C)C(=O)Nc1cccc(F)c1	-5[16.7 µM]	20
55	CC(C)NC(=O)N[C@@H]1CC[C@H](CCNS(=O)(=O)c2ccc(F)cc2)O[C@H]1CO	-9[16.7 µM]	52
56	CCC(=O)Nc1ccc2c(c1)OC[C@@H](C)N(CC1CCOCC1)C[C@@H](C)[C@H](OC)CN(C)C2=O	-11[16.7 µM]	0
57	C[C@@H]1CN([C@@H](C)CO)C(=O)c2cccc(NC(=O)c3ccncc3)c2O[C@@H]1CN(C)C(=O)Nc1ccc(C(F)(F)F)cc1	-18[16.7 µM]	3
58	Cn1cnc(S(=O)(=O)N[C@@H]2C=C[C@H](CC(=O)Nc3ccc(-c4ccccc4)cc3)O[C@H]2CO)c1	14[16.7 µM]	0
59	COCc1cn(CC[C@H]2CC[C@@H](NC(=O)Cc3cccnc3)[C@@H](CO)O2)nn1	-2[16.7 µM]	-14
60	C[C@@H]1CN([C@@H](C)CO)S(=O)(=O)c2ccc(-c3ccccc3F)cc2O[C@@H]1CN(C)Cc1ccncc1	-23[16.7 µM]	-13

cpd	SMILES	HIV Env fusion	Yeast UUG start
61	O=C(C[C@@H]1CC[C@@H](NS(=O)(=O)c2ccccc2)[C@H](CO)O1)NCc1ccncn1	-6[16.7 µM]	-14
62	C[C@@H]1CCCCO[C@H](CN(C)Cc2ccc(Cl)c(Cl)c2)[C@@H](C)CN([C@@H](C)CO)C(=O)c2cc(NC(=O)Nc3ccc(F)cc3)ccc2O1	?	-7
63	CCCC(=O)Nc1ccc2c(c1)OC[C@H](C)N(C(=O)c1ccncc1)C[C@@H](C)[C@@H](OC)CN(C)C2=O	8[16.7 µM]	4
64	Cc1noc(C)c1NC(=O)N(C)C[C@@H]1Oc2c(cccc2N(C)C)C(=O)N([C@@H](C)CO)C[C@H]1C	-1[16.7 µM]	11
65	CN(C)CC(=O)N[C@@H]1CC[C@@H](CC(=O)NCc2ccc(Cl)cc2)O[C@@H]1CO	12[16.7 µM]	0
66	C[C@H](CO)N1C[C@H](C)[C@H](CN(C)Cc2ccc(C(F)(F)F)cc2)OCCCC[C@H](C)Oc2ccc(NC(=O)NC3CCCCC3)cc2C1=O	72*[16.7 µM]	15
67	Cc1ccccc1-c1ccc2c(c1)O[C@@H](CN(C)CC1CC1)[C@@H](C)CN([C@@H](C)CO)S2(=O)=O	1[16.7 µM]	35
68	Cc1noc(C)c1S(=O)(=O)N(C)C[C@H]1OCCCC[C@H](C)Oc2ccc(NC(=O)Nc3ccc(C(F)(F)F)cc3)cc2C(=O)N([C@H](C)CO)C[C@H]1C	-13[16.7 µM]	-13
69	C[C@H]1CN([C@@H](C)CO)C(=O)c2cc(C3=CCCC3)cnc2O[C@@H]1CN(C)C(=O)C1CCCCC1	9[16.7 µM]	7

High-throughput results deposited in PubChem BioAssay by Broad Institute.
